Screening data from PubChem.
Mtb growth – M. tuberculosis H37Rv growth inhibitors, H37Rv strain (AID 1626); 220,000 compounds, 0.95% hits; one-dose inhibition, % at 10 µM; IC50 in µM for titrated hits; M. tuberculosis H37Rv growth inhibition; higher % means a stronger effect;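 active = confirmed in a dose series; inconclusive = inhibition above 80% but not taken into the dose series; inactive = below 80% or under 30% at every dose of the series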;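 also: bacteria incubated seven days before Alamar blue readout; 0% = bacteria only wells and 100% = bacteria with antibiotic wells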
Mtb bLac sens – beta-lactam sensitization of Mtb H37Rv | M. tuberculosis H37Rv growth with meropenem, percent inhibition; hits of this screen are not shown here | inhibition, % at 25 µM | 330,000 compounds, 0.27% hits | AID 434955;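 active = about 74% or more and at least 40 points above the plate without the antibiotic, then above 30% in a dose series; inconclusive = first-round hits that could not be retested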;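 also: growth measured after seven days incubation then overnight dye step; 0% = bacteria only wells and 100% = bacteria with antibiotic; twin plates without the antibiotic show which effects depend on it; some results filed as inactive read as strong as hits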
Arbovirus anti – blocks arbovirus infection. 200,000 compounds, 0.37% hits. arbovirus infection cell-based antiviral screen. inhibition, % at 10 µM;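 active = inhibition from about 30%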;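 also: bluetongue infection of BSR cells; cell survival read as ATP light after 72 h; 0% = infected wells without compound and 100% = uninfected wells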
RecA intein inh – blocks M. tuberculosis RecA intein splicing. P9WHJ3. cell-free RecA intein splicing, fluorescence. inhibition, %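 (about 9 µM by stock and volumes)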. 290,000 compounds, 0.75% hits. AID 2221; in the data active = inhibition above about 30%; inconclusive = no clear call, values can overlap the other calls;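 also: 0% = vehicle wells and 100% = reference inhibitor control wells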
Target sequence (P9WHJ3 whole entry, looked up): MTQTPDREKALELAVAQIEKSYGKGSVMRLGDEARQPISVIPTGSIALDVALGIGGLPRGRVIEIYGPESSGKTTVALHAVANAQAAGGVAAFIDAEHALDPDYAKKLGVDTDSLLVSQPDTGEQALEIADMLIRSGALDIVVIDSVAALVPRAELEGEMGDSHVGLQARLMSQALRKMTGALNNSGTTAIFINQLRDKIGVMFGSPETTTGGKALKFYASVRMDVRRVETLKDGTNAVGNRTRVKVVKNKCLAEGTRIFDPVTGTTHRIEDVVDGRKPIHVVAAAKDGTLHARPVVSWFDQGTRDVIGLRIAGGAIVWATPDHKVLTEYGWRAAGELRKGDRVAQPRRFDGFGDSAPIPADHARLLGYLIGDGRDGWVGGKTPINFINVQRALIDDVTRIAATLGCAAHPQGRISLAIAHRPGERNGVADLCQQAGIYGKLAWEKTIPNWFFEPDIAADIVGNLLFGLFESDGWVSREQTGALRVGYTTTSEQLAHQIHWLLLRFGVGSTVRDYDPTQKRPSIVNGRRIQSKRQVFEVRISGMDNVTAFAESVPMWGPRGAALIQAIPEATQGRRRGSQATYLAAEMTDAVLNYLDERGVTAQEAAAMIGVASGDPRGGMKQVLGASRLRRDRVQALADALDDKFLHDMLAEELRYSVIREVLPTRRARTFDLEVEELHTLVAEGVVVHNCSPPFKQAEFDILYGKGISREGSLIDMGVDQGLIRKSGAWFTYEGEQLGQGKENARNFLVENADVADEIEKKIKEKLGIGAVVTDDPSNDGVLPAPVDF
YopH inh – YopH (Yersinia) phosphatase inhibition. fluorescence Ex485/Em525. inhibition, %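 (about 10 µM by stock and volumes)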. 140,000 compounds, 0.16% hits;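 active = inhibition of 50% or more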;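 also: controls were vehicle for no effect and minimum signal wells for full effect; inactives centre near -20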
Arbovirus anti repeat – second read-out of Arbovirus anti, no call of its own (marks repeat the call); inhibition, %; measured here: 10K subset replicate screen; many hits read low in the repeat;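 first of two repeat runs on a subset; 0% = infected and 100% = uninfected wells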
Numbers without * were called inactive; ? = inconclusive; . = not tested or not shown. This is a subset, so the mix of outcomes need not match the whole.

SMILES	Mtb growth	Mtb bLac sens	Arbovirus anti	RecA intein inh	YopH inh	others
COc1ccc(S(=O)(=O)N2CCCC2C(=O)NCc2cccs2)cc1 (stereo unspecified)	-4%	-15	-5	1.4	-27
Cc1cc(OCC(=O)N2CCN(c3ccccn3)CC2)c(C)cc1Br	.	-12	.	3.5	.
Clc1cccc(-c2nc(NCC3CCCO3)c3ccccc3n2)c1 (stereo unspecified)	49%	12	-11	11	.
Cn1c(-c2cc3c(C(F)(F)F)nn(C)c3s2)n[nH]c1=S	-3%	5	0	-0.6	-36
CCCCOC(=O)CCc1n[nH]c(=O)[nH]c1=O	6%	-6	-2	0.5	-1	Arbovirus anti repeat=-1
Cc1ccccc1N1CCN(S(=O)(=O)c2nnc(NC(=O)c3ccc(F)cc3)s2)CC1	.	1	.	-1.4	.
Fc1cccc(Cc2noc(CN3CCN(c4cnccn4)CC3)n2)c1	3%	3	2	1.6	.
O=C(CCCn1c(=S)[nH]c2ccc(Br)cc2c1=O)N1CCN(c2ccccn2)CC1	6%	-4	-4	0.2	-11
CCO[C@@H]1OC(C(=O)N2CCOCC2)=C[C@H](c2coc3ccccc3c2=O)[C@H]1CCCO	-1%	-3	1	-1.2	.
CCOCCCNCc1ccc(OCc2ccccc2Cl)cc1	-2%	-5	0	2.2	-14
O=C(CCc1ccccc1)OCC(=O)c1cccc([N+](=O)[O-])c1	1%	-5	-6	-2.8	.
O=C(O)CCc1nnc(SCC(=O)Nc2cccc(C(F)(F)F)c2)[nH]c1=O	.	9	4	-3.4	.
CCn1c(=O)n(CC)c2cc(N3CCCC3)c(NC(=O)c3ccc(OC)c(Br)c3)cc21	.	87	.	-1.1	.
CCOC(=O)c1cc(C)n(S(=O)(=O)c2ccc(C)cc2)c1C	-2%	-2	1	7.4	-29
CCOC(=O)C(CSCC(=O)c1ccc(Cl)cc1)NC(=O)OC(C)(C)C (stereo unspecified)	-1%	84	0	2.0	-13
Cc1cccnc1NC(=O)C1CCN(S(=O)(=O)c2cccs2)CC1	-7%	-16	4	0.3	-19
COc1ccccc1CNS(=O)(=O)c1c(C)[nH]c(C)c1C(=O)N1CCCC1	.	-4	.	-2.4	.
CC(C(=O)c1ccc(-c2ccccc2)cc1)[n+]1cccc(NC(=O)c2ccccc2)c1 (stereo unspecified)	4%	-7	.	7.5	.
N/C(=N\OC(=O)c1ccc(Cl)cc1)c1ccc(Cl)cc1	3%	93	-7	-0.2	-39
CCc1nc2ccccc2c2nc3ccccc3n12	10%	24	-20	4.3	6

The final three entries of the part above lead into the next:
SMILES	Mtb growth	Mtb bLac sens	Arbovirus anti	RecA intein inh	YopH inh	others
CC(C(=O)c1ccc(-c2ccccc2)cc1)[n+]1cccc(NC(=O)c2ccccc2)c1 (stereo unspecified)	4%	-7	.	7.5	.
N/C(=N\OC(=O)c1ccc(Cl)cc1)c1ccc(Cl)cc1	3%	93	-7	-0.2	-39
CCc1nc2ccccc2c2nc3ccccc3n12	10%	24	-20	4.3	6
O=C(CNC(=S)N(CCCN1CCOCC1)Cc1cccs1)NC1CCCCC1	3%	-2	8	-1.1	.
O=[N+]([O-])c1ccc(OCCOc2ccccc2/C=N/n2cnnc2)cc1	8%	9	-2	-0.5	.
COCCNC(=S)NC12CC3CC(CC(C3)C1)C2	-8%	0	6	1.5	0
COc1ccc(OC)c(NC(=O)C2C3CCC(O3)C2C(=O)O)c1 (stereo unspecified)	.	-7	5	-1.4	-1
CCc1ccc(CN2C(=O)c3ccccc3C2C(=O)NC(C)CC)cc1 (stereo unspecified)	.	2	.	0.4	.
Cc1ccc(S(=O)(=O)C2(C(=O)Nc3ccc4c(c3)OCO4)CC2)cc1	-3%	-3	-4	-0.7	-17
O=C(Oc1ccc(/C=N/O)cc1)c1ccccc1	31%	-7	-2	6.3	-37
O=C(NC1CCCCC1)C(c1cccnc1)N(C(=O)CCl)c1ccc(F)cc1 (stereo unspecified)	11%	59	-8	73*	-11
CC(C)CN(C(=O)c1nn(C)c(=O)c2ccccc12)c1nc2ccccc2s1	0%	-7	5	-0.8	1
CC1=CC(=O)C(C(C)=Nc2ccccc2Cl)C(=O)O1 (stereo unspecified)	-8%	1	.	1.9	.
COc1cccc(CNc2cccc(C(F)(F)F)c2)c1O	-5%	-10	12	5.6	.
O=C(Nc1cccc(O)c1)c1cc2nc(-c3ccccc3)cc(-c3ccccc3)n2n1	9%	2	2	-2.4	-23
O=C(Nc1ccccc1-c1nc2ccccc2s1)c1ccco1	4%	19	6	-2.3	-23	Arbovirus anti repeat=-4
CCCCOc1ccc(C(=O)Nc2ccc(SC(F)F)cc2)cc1OC	10%	30	-12	0.1	-11
COc1ccc(Cl)cc1NC(=O)CCc1nc(-c2ccccc2F)no1	-5%	-10	0	11	.
C=CCn1c(SCC(=O)Nc2c(C)nn(Cc3ccccc3)c2C)nnc1C(O)c1ccccc1 (stereo unspecified)	1%	12	2	0.6	-4
COc1ccc(Cc2nnc(NC(C)=O)s2)cc1	-4%	-5	3	-0.7	.
CN(C)CCCNC(=S)N(Cc1cccs1)Cc1cc2cc3c(cc2[nH]c1=O)OCCO3	-8%	-8	-10	0.5	.
CC(C)N(Cc1nc(COc2ccccc2)no1)Cc1nccn1C	2%	4	1	2.6	.
O=C(Nc1nncs1)c1cc(S(=O)(=O)N2CCCCC2)ccc1Cl	.	-8	.	3.3	.
CCn1c(-c2ccco2)n[nH]c1=S	-3%	0	2	-3.7	-35
O=C(NCCn1cccn1)c1ccc(OC2CCN(CCc3ccccc3)CC2)cc1	2%	1	-6	6.6	.
CCOC(=O)c1nc2ccccc2c(=O)n1-c1ccc(C)cc1	4%	-2	-3	-0.2	-20
Cc1ccc2c(c1)c1c(n2C)C(=O)CCC1	-12%	-7	0	5.9	5
CC1(C)Cc2c(sc(NC(=O)C(=O)N3CCOCC3)c2C(N)=O)CO1	.	3	.	3.6	.
c1ccc(C(c2ccccc2)c2nc(-c3cccnc3)no2)cc1	21%	7	-2	0.4	-27
COc1cnc(-c2ccccc2)nc1Oc1ccccc1C	16%	2	4	4.2	-35
CS(=O)(=O)c1cnc(-c2ccccc2)nc1-c1ccc(Cl)c(Cl)c1	7%	-1	-4	-1.2	.
COc1ccc(S(=O)(=O)Nc2cccc3ccc(O)cc23)cc1	.	3	.	-3.7	.
CC(C)(C)C#CCn1c(/C=[N+](\[O-])C2CCCCC2)nc2ccccc21	.	-5	.	2.8	.

The list goes on, starting with the last five of the part before.
SMILES	Mtb growth	Mtb bLac sens	Arbovirus anti	RecA intein inh	YopH inh	others
c1ccc(C(c2ccccc2)c2nc(-c3cccnc3)no2)cc1	21%	7	-2	0.4	-27
COc1cnc(-c2ccccc2)nc1Oc1ccccc1C	16%	2	4	4.2	-35
CS(=O)(=O)c1cnc(-c2ccccc2)nc1-c1ccc(Cl)c(Cl)c1	7%	-1	-4	-1.2	.
COc1ccc(S(=O)(=O)Nc2cccc3ccc(O)cc23)cc1	.	3	.	-3.7	.
CC(C)(C)C#CCn1c(/C=[N+](\[O-])C2CCCCC2)nc2ccccc21	.	-5	.	2.8	.
COc1ccc(CSc2nc(C)cc(C)c2C#N)cc1	-9%	4	7	-1.8	.
CCOC(=O)c1cc(C#N)c(N2CCN(C)CC2)nc1-c1ccccc1	5%	2	-9	0.1	.
C=CCNc1nc(Nc2ccc(Cl)cc2)nc(OC)n1	-4%	66	-9	3.1	.
CC(Oc1ccc2ccccc2c1)C(=O)NNC(=S)NC(=O)c1ccco1 (stereo unspecified)	?	98	-33	11	-17
C=CCN1CN(S(=O)(=O)c2cccc(Cl)c2)c2nc3ccccc3nc21	.	1	.	4.0	.
CCc1nc2ccc(C(=O)NCCc3ccc(OC)cc3)cc2nc1CC	.	-4	.	-0.7	.
COc1ccc(C)cc1NC(=O)C12CCC(C)(C(=O)O1)C2(C)C (stereo unspecified)	1%	-3	6	0.7	-10
c1cc2n(c1)-c1c(ccc3c1OCO3)CNC2c1ccc2c(c1)OCO2 (stereo unspecified)	11%	-9	-12	2.1	-30
O=C(C1CC1)N1CCc2cc(Br)cc(S(=O)(=O)NCC3COc4ccccc4O3)c21 (stereo unspecified)	-2%	2	-2	3.2	-35
CCCc1nc(-c2cc3cc(C)ccc3[nH]c2=O)no1	-1%	0	.	-2.5	.
CN=C(NC1CCCCC1)c1ccc(Cl)cc1	0%	-6	-3	-1.9	0
COc1ccc(CCNC(=O)Cn2c([N+](=O)[O-])cnc2C)cc1OC	-16%	0	-2	0.1	.
OCCN=Cc1c(O)[nH]c2ccccc12	-4%	-19	-7	-0.5	-18
Cc1ccc(/C(O)=C2/C(=O)C(=O)N(Cc3ccco3)C2c2cccs2)cc1 (stereo unspecified)	-3%	39	2	3.3	-11
CN(C)CCCNc1cc(C(C)(C)C)nc2c(-c3ccccc3)cnn12	3.2µM*	100	.	0.6	.
COc1ccc(N(CC(=O)N2CCN(C)CC2)S(=O)(=O)c2cc(C)ccc2OC)cc1Cl	.	-13	.	-1.2	.
Cc1cc(S(=O)(=O)N2CCCCC2)ccc1OCC(=O)N1CCOCC1	.	12	.	0.8	.
Cc1ccccc1OC(C)C(=O)NCCCN1CCOCC1 (stereo unspecified)	.	-10	.	-5.3	.
O=C(O)CCCC(=O)Nc1ccc2c(c1)oc1ccccc12	.	17	.	-0.8	.
O=c1c2[nH]c3ccc(F)cc3c2ncn1CC1CCCO1 (stereo unspecified)	-6%	-7	.	-0.4	.
c1ccc(CN2CCN(c3nc4ccccc4n4cnnc34)CC2)cc1	6%	-2	10	0.1	-6	Arbovirus anti repeat=-2
CCOC(=O)C1CCN(S(=O)(=O)c2cc3c4c(c2)C(C)C(=O)N4CCC3)CC1 (stereo unspecified)	.	-2	.	-1.4	.
Cc1ccc(NC(=O)CSc2nc(=O)n(CCN(C)C)c3c2CCCC3)cc1Cl	.	5	.	3.1	.
COc1ccc(C(=O)O)cc1S(=O)(=O)NCCc1ccccn1	4%	14	.	-0.7	.
COc1ccc(C(=O)Nc2ccc3c(c2)C(=O)c2ccccc2C3=O)cc1OC	-14%	3	-12	2.0	-13
O=C(NCc1cccs1)c1cc(-c2ccccn2)nc2ccc(Br)cc12	8%	3	-17	11	.
OC[C@@H]1CCCN1Cc1cn(-c2ccccc2)nc1-c1ccc2c(c1)OCO2	2%	-4	-5	-18	.
COC(=O)c1c(NC(=O)Cn2cnc([N+](=O)[O-])n2)sc2c1CCC(C)C2 (stereo unspecified)	18%	?	-3	-0.8	-15
COC(=O)C1C(O)CCC2CN3CCc4c([nH]c5ccccc45)C3CC21 (stereo unspecified)	-13%	-3	.	-8.1	.
COc1cccc(-c2csc(N3CCN(C(=O)Nc4ccc(F)cc4)CC3)n2)c1	20%	96	-7	8.5	-15
CC(=O)NC(=S)Nc1ccc(S(=O)(=O)N(C)Cc2ccccc2)cc1	-1%	0	0	1.9	.
O=C(C1=C[C@H](C2CCCCC2)C[C@H](OCc2ccc(CO)cc2)O1)N1CCN(Cc2ccccc2)CC1	18%	68	-20	13	.
COc1ccc(NC(=O)Cn2ncn3c(cc4ccccc43)c2=O)c(OC)c1OC	.	7	.	-1.8	.
Cc1ccc(C(=O)N/C(=C\c2ccco2)C(=O)N2CCSCC2)cc1C	4%	2	4	-0.8	.
Cc1ccc(S(=O)(=O)NCCCN(C)C)cc1	-2%	-13	2	-5.7	-31
CSc1ccccc1NC(=O)COC(=O)c1ccccc1Cc1ccccc1	7%	-1	4	2.3	-33
Cc1cc(NC(=O)CN2CCCCC2)n(-c2ccccc2)n1	-2%	6	.	8.6	.
CCN(CC)S(=O)(=O)c1ccc(C(=O)N2CCN=C2SCc2cccnc2)cc1	4%	-7	4	7.0	-16
Cc1[nH]c(C)c(S(=O)(=O)N2CCN(c3cccc(C(F)(F)F)c3)CC2)c1C(=O)N1CCCCC1	.	-2	.	3.8	.
COc1ccc(NC(c2ccccc2)P(=O)(Oc2ccccc2)Oc2ccccc2)cc1 (stereo unspecified)	?	86	-2	2.8	-30
Cc1cc(C)c2c(CC(=O)NC(C)C)coc2c1	-5%	-6	18	-0.1	.
Clc1ccc2c(c1)C=Nc1c(NCc3ccccc3)ncnc1O2	.	0	4	1.7	-19
COC(=O)c1ccc(N2CCOCC2)c(NC(=O)c2cccnc2)c1	.	-15	.	-2.3	.
CCN(CC)c1ccc(/C=N/NC(=O)CNC(=O)c2cccnc2)cc1	.	73	.	-1.5	.
CC(C(=O)NC1CCCCC1)N(Cc1ccc(F)cc1)C(=O)c1snc(C(N)=O)c1N (stereo unspecified)	.	7	.	0.2	.
CCCCn1c(SCC(=O)Nc2cc(C)[nH]n2)nc2ccsc2c1=O	4%	-1	-6	-2.1	-36
OCCCCNCc1ccc(OCc2ccc(Cl)cc2)cc1	5%	4	-28	2.1	3
